Compound activity: PubChem BioAssay, National Center for Advancing Translational Sciences (NCATS)
Marburg entry inh: qHTS for inhibitors of binding or entry into cells for Marburg Virus | Potency, µM (doses to about 37.8 µM), for the others: top-dose activity change, negative = inhibition, most hits filed as inhibitors | 300,000 compounds, 1.8% hits | Marburg virus pseudotyped entry inhibition, cell reporter; control for the full effect not named in the record; about a third of the inactives were read at about 46 µM | AID 540276, 2011; active = well fitted inhibition curve with a large enough effect; inconclusive = small, poorly fitted or top-dose-only effect, or effect the other way; inactive = flat fitted curve, though single readings scatter; tested in HEK293 cells; about a fifth of its hits are not listed in these tables; note: % is set by controls: 0 for no effect and ±100 for the full control effect; luciferase read-out
RE007 growth inh: qHTS Assay for Inhibitors of the HIV-1 protein Vpr; S. pombe RE007 Vpr strain, BacTiter-Glo ATP luminescence, 24 h; control for the full effect not named in the record; 360,000 compounds, 0.21% hits; Potency, µM (highest dose often 92.2 µM), for inactives: top-dose activity change, negative = less growth; active = well fitted falling curve with a large enough effect; inconclusive = small, poorly fitted or top-dose-only effect; inactive = no such curve, though single readings can be large or run the other way;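 note: % is set by controls: 0 for no effect and ±100 for the full control effect; nearly all actives have a fitted effect of over 50% in size; the assay follows cell death caused by Vpr and the record does not say whether a fall means rescue or toxicity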
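Fission yeast RE007 carrying one integrated HIV-1 vpr copy, seeded at OD 0.01 in PMG+AL medium with 23 nL pinned compound. Grown 24 h at 30 degrees; viability read by BacTiter-Glo luminescence after 5 min.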
StopGo reporter: High Throughput Screening for Foot and Mouth Disease Virus Antivirals; 410,000 compounds, 1.2% hits; human cells with a luciferase reporter of 2A StopGo recoding; control for the full effect not named in the record; AID 1159524, 2015; Potency, µM (highest dose often 57.9 µM), without a hit: at the top dose signal change, negative = less light; active = well fitted falling curve with a large enough effect; inconclusive = small, poorly fitted or top-dose-only effect; inactive = no such curve, though single readings can be large or run the other way; tested in HEK293T cells; note: % is set by controls: 0 for no effect and ±100 for the full control effect; nearly all actives have a fitted effect of over 45% in size; luciferase light after 4 h
NS1 function inh: qHTS Assay for Inhibitors of Influenza NS1 Protein Function; Potency, µM (series often up to 46.1 µM), for the others: at the highest dose activity, positive = more growth; AID 2326, 2010; 270,000 compounds, 0.4% hits; S. cerevisiae slowed by influenza A NS1, growth recovery by OD600; note: actives are rising curves; nearly all actives have a fitted effect of over 50% in size
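Read-out: OD600 growth recovery of NS1-expressing budding yeast. Cells grown overnight at 30C in -URA glucose medium, washed, resuspended and diluted 1:100 in 2% galactose assay medium, pH 6.0. Same strain lacking NS1 served as positive control.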
SARS PLP yeast: qHTS of Yeast-based Assay for SARS-CoV PLP | S. cerevisiae expressing SARS-CoV PLpro, growth rescue; control for the full effect not named in the record | Potency, µM (highest dose often 32.9 µM), for the others: at the top dose activity, positive = growth rescue | 330,000 compounds, 0.19% hits | AID 485353, 2010; note: 0% is about no effect; nearly all actives have a fitted effect of over 55% in size; growth read by luminescence after 48 h
Lassa entry inh: qHTS for Inhibitors of binding or entry into cells for Lassa Virus; Lassa virus pseudotype entry inhibition, cell reporter; control for the full effect not named in the record; AID 540256, 2011; Potency, µM (top dose mostly 37.9 µM), for the others: at the highest dose activity change, negative = inhibition, most hits filed as inhibitors; 300,000 compounds, 1.2% hits; active means well fitted inhibition curve with a large enough effect; inconclusive means small, poorly fitted or top-dose-only effect, or effect the other way; inactive means flat fitted curve, though single readings scatter; tested in HEK293 cells; note: % is set by controls: 0 for no effect and ±100 for the full control effect; nearly all actives have a fitted effect of over 50% in size; luciferase read-out
Cruzain Triton: qHTS Assay for Promiscuous and Specific Inhibitors of Cruzain (with detergent) | Cruzipain (Trypanosoma cruzi), P25779 | purified cruzain, Z-FR-AMC fluorescence, 0.01% Triton | Potency, µM, for the others: max response, negative = inhibition, usual class: inhibitors | 200,000 compounds, 0.43% hits | AID 1478, 2009; active = well fitted curve in the direction sought with a large enough effect; inconclusive = small, poorly fitted or top-dose-only effect, or another doubt; inactive = no such curve, though single readings can be large; an effect the other way counts as inactive or inconclusive;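 note: plate controls were neutral wells for no effect and buffer without enzyme for full effect; nearly all actives have a fitted effect of over 40% in size; top concentration of the series not given in the record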
Target sequence (P25779 123-467 limits assumed): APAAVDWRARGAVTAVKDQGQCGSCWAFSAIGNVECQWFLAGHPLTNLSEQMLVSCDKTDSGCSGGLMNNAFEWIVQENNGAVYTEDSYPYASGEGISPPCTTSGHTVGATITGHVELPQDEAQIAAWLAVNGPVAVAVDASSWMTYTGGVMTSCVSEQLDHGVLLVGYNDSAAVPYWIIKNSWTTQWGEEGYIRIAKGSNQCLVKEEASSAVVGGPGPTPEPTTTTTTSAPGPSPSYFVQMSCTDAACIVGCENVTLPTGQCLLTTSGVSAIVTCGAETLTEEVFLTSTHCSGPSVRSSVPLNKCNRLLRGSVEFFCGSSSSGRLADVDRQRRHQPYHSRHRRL
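15 min RT preincubation of 1.5 nM cruzain with compound, then 2 uM Z-FR-AMC added; kinetic AMC fluorescence, 60 s delta. Triton X-100 0.01%, pH 5.5.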
Cruzain noTriton: qHTS Assay for Promiscuous and Specific Inhibitors of Cruzain (without detergent) | Cruzipain (Trypanosoma cruzi), P25779 | purified cruzain, Z-FR-AMC fluorescence, no detergent | Potency, µM, without a hit: max response, negative = inhibition, most hits filed as inhibitors | 200,000 compounds, 2.3% hits; active = well fitted curve in the direction sought with a large enough effect; inconclusive = small, poorly fitted or top-dose-only effect, or another doubt; inactive = no such curve, though single readings can be large; an effect the other way counts as inactive or inconclusive;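 note: plate controls were enzyme without inhibitor for no effect and buffer without enzyme for full effect; nearly all actives have a fitted effect of over 40% in size; top concentration of the series not given in the record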
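Detergent-free condition (0.00005% Triton X-100) in acetate buffer pH 5.5 with DTT. 1.5 nM enzyme and compound were pre-mixed 15 min, then 2 uM Z-FR-AMC substrate added; reaction progress from fluorescence change between first and third reads (60 s).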
The depositor's hits bear a star; ? = inconclusive; . = no result given; & = joins results of further samples; [ ] = another dose, or the depositor's remark. Unless noted, calls come from the whole dose curve; as a rule, active means well fitted rising curve with a large enough effect; inconclusive means small, poorly fitted or top-dose-only effect; inactive means no such curve, though single readings can be large or run the other way. Potency is the fitted concentration of half-maximal effect.

SMILES	Marburg entry inh	RE007 growth inh	StopGo reporter	NS1 function inh	SARS PLP yeast	Lassa entry inh	Cruzain Triton	Cruzain noTriton
OCC1(Cc2ccccc2Cl)CCN(C/C=C/c2ccccc2)CC1	.	10%	?	0%	2%	.	.	.
COc1ccc2nc(SCC(=O)NC3CCCC3)c(C)cc2c1	-21%[46.1 µM]	-19%	-9%	-24%	-5%	?	.	.
O=C(CC1(C(F)(F)F)OCCO1)Nc1ccc2c(c1)OCO2	16%	3%	.	0%	-4%	10%	2.6%	-6%
CCOC(=O)C1=C(C)NC2=C(C(=O)CCC2)C1c1ccc(O)c(OCC)c1 (stereo not given)	-14%	9%	-12%	-5%	-7%	3%	-3.0%	6%
Cc1ccc2nc(N/N=C/c3ccccc3C#N)nc(-c3ccccc3)c2c1	13µM*	39%	-19%	9%	2%	?	-5.3%	?
COc1ccc(/C=C2\SC(=N)N(c3ccc(F)cc3)C2=O)cc1OC	-10%[46.1 µM]	1%	-15%	.	-5%	?	.	.
Cc1ccc(-c2cnc(NCc3cc4c(cc3[N+](=O)[O-])OCO4)n2C)cc1C	.	5%	-13%	0%	-1%	.	.	.
N=c1oc2ccccc2cc1C(=O)NCc1ccccc1	6%	?	18%	-34%	-3%	-2%	.	.
O=S(=O)(c1ccc(S(=O)(=O)N2CCC3(CC2)OCCO3)cc1)N1CCCC1	2%[46.1 µM]	9%	-16%	-66%	0%	-5%	.	.
O=C(O)CCCC(=O)N1CCCC1	.	1%	3%	4%	2%	4%	.	.
Cc1cc2c(cc(C(=O)OC(C(=O)NCc3ccco3)C(C)C)n2C)o1 (stereo not given)	?	-15%	.	-17%	4%	?	-5.0%	-5%
CCOc1ccc(OCC)c(-n2cnnn2)c1	9%[46.1 µM]	.	1%	.	.	-9%[46.1 µM]	-0.9%	-4%
O=C1NC(=O)C(CCc2ccncc2)(CCc2ccccn2)C(=O)N1c1ccc(Br)cc1 (stereo not given)	2%[46.1 µM]	-22%	60%[activator]	-3%	0%	?	.	.
CCSc1nc(C)cc(Oc2ccc(=O)n(C)n2)n1	?	5%	13%	-2%	-5%	-13%	-5.8%	7%
Cc1ccc(NC(=O)C(=O)NCC2CCCO2)cc1C (stereo not given)	.	-1%	13%	-6%	-1%	.	.	.
CN(C)c1ccc(/C=N/NC(=O)c2cccc(C(=O)N/N=C/c3ccc(N(C)C)cc3)n2)cc1	?	-8%	3%	1%	0%	8%	.	.
CCn1c(SCC(=O)Nc2cc(C)ccc2C)nc2c(c1=O)SC(C)C2 (stereo not given)	.	8%	-17%	-120%	-22%	.	-1.7%	-8%
COC(=O)c1sc2nc3c(cc2c1N)CCCC3	?	13%	-1%	-9%	-4%	-18%	.	.
CC(=O)N1CCN(c2ccccc2NC(=O)COc2ccc(Cl)cc2Cl)CC1	?	22%	-12%	-68%	-5%	-11%	-6.3%	?
Cn1c(=O)c(C(=O)Nc2cnccn2)c(O)c2ccccc21	.	.	.	-59%	2%	.	1.3%	-9%
Cc1ccc2c(CC(=O)OCc3cc(=O)n4c(n3)sc3ccccc34)coc2c1	-14%	-2%	-14%	2%	-2%	20%	-1.1%	11%
C=CCn1c(SCCN2CCCC2)nc2c([nH]c3ccccc32)c1=O	?	-9%	-26%	.	1%	-2%	.	.
Oc1ccccc1C1=Nc2ccccc2N=C(c2ccco2)C1	?	-7%	-9%	-4%	-7%	?	-12%	-2%
COC(=O)c1[nH]c2ccccc2c1NC(=O)CN1CCN(c2cccc(OC)c2)C(C)C1 (stereo not given)	?	10%	?	-45%	-9%	-14%	-3.3%	7%
CN(C)CC(=O)c1c[nH]c2ccccc12	5%	2%	-6%	2%	0%	?	-1.7%	-13%
CSc1ccccc1OCc1cc(C(=O)N(C)Cc2cnccn2)no1	?	87%	23%	1%	-1%	3%[46.1 µM]	.	.
CN(C)c1ccc(Cc2cc3c(O)ccc(O)c3cc(Cc3ccc(N(C)C)cc3)c2=O)cc1	?	-1%	-20%	.	.	-28%	.	.
COC(=O)c1nn(-c2ccc(OC)cc2)c(=O)cc1NN	3%[46.1 µM]	-14%	2%	.	0%	-6%	.	.
O=c1cc(CN2CCN(Cc3ccccc3)CC2)c2ccc(O)cc2o1	-7%[46.1 µM]	-6%	-26%	7%	3%	-2%	.	.
O=C(N/N=C/c1cc(Cl)cc([N+](=O)[O-])c1O)NC12CC3CC(CC(C3)C1)C2	?	-6%	22µM*	-8%	0%	11%	-7.7%	?
Clc1cccc(N2CCN(c3ncnc4c3nc3n4CCCC3)CC2)c1	?	.	-6%	.	.	4%[46.1 µM]	-4.1%	-6%
O=C(NC1=NCCS1)C1Cc2ccccc2CN1C(=O)c1ccccc1 (stereo not given)	20%	?	47%[activator]	?	0%	16%	2.0%	-22%
Cc1cc(NS(=O)(=O)c2ccc(NC(=S)NC(=O)c3ccc(Br)cc3)cc2)no1	32%	-4%	15%	5%	7%	26%	-19%	-6%
CN1CCC(N(C)C(=O)c2cc(=O)c3ccccc3o2)CC1	?	-15%	-1%	.	0%	-2%	.	.
CCOc1ccc(NC(=O)CCNS(=O)(=O)c2ccc3c(c2)CCC(=O)N3)cc1	-24%	4%	7%	9%	1%	3%	-0.3%	6%
Cc1ccc(N(CC(=O)NC2CCCC2)C(=O)CCC(=O)Nc2ccccn2)cc1C	-9%	-26%	14%	1%	-2%	-8%	.	.
Cc1cccc(C(=O)NCCc2nc3ccccc3n2Cc2ccccc2Cl)c1	3%[46.1 µM]	.	-8%	.	.	?	8.9µM*	15%
O=C(NCCO)N1c2ccccc2Sc2ccccc21	34%	6%	-6%	29%	4%	6%	.	.
CCOc1ccccc1NC(=O)Cn1c(=O)nc(-c2ccccc2F)c2cc(Cl)ccc21	.	.	?	.	.	?	0.2%	-2%
Cc1ccc(NC(=S)NCc2ccc3c(c2)cc(C)n3C)c(C)c1	-22%	8%	4%	.	-1%	0%	.	.
CC(CCc1ccccn1)C(=O)c1ccccc1 (stereo not given)	10%	3%	53%[activator]	.	.	?	.	.
CCN(CC)C(=O)CSc1nc2cccnc2n1-c1ccccc1OC	20%	-12%	4%	-1%	-4%	6%	-1.7%	-7%
CCC(=O)Nc1ccc(NC(=O)CSc2nnc(-c3ccc(O)cc3)n2CC2CCCO2)cc1 (stereo not given)	-3%[46.1 µM]	21%	0%	6%	1%	?	.	.
CCOc1ccccc1N(CC(=O)N1CCOCC1)S(=O)(=O)c1ccc(SC)cc1	?	7%	83%[activator]	-13%	-1%	5.6µM*	11%	?
O=c1[nH]c(=O)n(CCc2ccccc2)c(O)c1C=NC1CC1	-12%[46.1 µM]	-1%	-4%	1%	1%	-2%[46.1 µM]	.	.
C=CCn1c(CC#N)nnc1N1CCOCC1	-4%	41%	-12%	9%	-2%	?	1.6%	1%
CC(C)c1ccc(NC(=O)CN(C)S(=O)(=O)c2ccc3c(c2)n(C)c(=O)c(=O)n3C)cc1	12%[46.1 µM]	.	-16%	.	.	6%[46.1 µM]	-0.6%	-4%
Cc1cc(NC(=O)c2cccc(S(=O)(=O)N3c4ccccc4CC3C)c2)no1 (stereo not given)	.	6%	-22%	?	4%	.	.	.
O=C(Nc1ccc(SC(F)F)cc1)c1cccc2nc3ccccc3nc12	3%	-5%	17%	-3%	5%	5%	0.2%	?
Cc1onc(-c2ccccc2Cl)c1C(=O)NNC(=O)C1CCN(Cc2ccccc2)CC1	.	-13%	-16%	7%	0%	.	.	.
Going on with the list:
SMILES	Marburg entry inh	RE007 growth inh	StopGo reporter	NS1 function inh	SARS PLP yeast	Lassa entry inh	Cruzain Triton	Cruzain noTriton
O=C(CN1CCOCC1)N1CCN(S(=O)(=O)c2ccccc2)C1c1ccccc1 (stereo not given)	-8%&-8%	-16%	3%	4%	-3%	21%	3.6%	9%
O=C(CN(Cc1ccccc1F)C(=O)c1ccco1)NCc1ccc(F)cc1	5%[46.1 µM]	23%	5%	-5%	3%	-17%	-4.3%	1%
Cc1cc(NC(=O)CSc2nc3c(cc2C#N)CCC3)no1	?	-1%	41%[activator]	10%	1%	?	.	.
CCc1cc(=O)oc2cc(OC(C)C(=O)O)c(Cl)cc12 (stereo not given)	-7%	4%	-10%	4%	1%	-16%	-9.1%	2%
CCSc1oc(-c2ccco2)nc1S(=O)(=O)c1ccccc1	?	-7%	.	-12%	-12%	13%	-6.6%	-2%
N#C/C(=C\c1ccc(-c2ccc(C(=O)O)cc2)o1)C(=O)Nc1ccccc1C(=O)O	.	.	-3%	.	.	12%[46.1 µM]	-2.7%	2%
COc1ccc(CNC(=O)c2cc(-c3ccc(Br)s3)nc3ccccc23)cc1	-5%[46.1 µM]	.	-13%	.	.	20%[46.1 µM]	-4.1%	-7%
O=C(NCc1ccc2c(c1)OCO2)c1ccc2c(c1)N(Cc1cccc(Cl)c1)C(=O)c1ccccc1S2=O (stereo not given)	.	.	-10%	.	.	-10%[46.1 µM]	-3.1%	?
Cc1ccc(C)c(CN2C(=O)c3ccccc3Sc3ccc(C(=O)NC4CCCC4)cc32)c1	.	.	-8%	.	.	?	0.8%	-5%
CCC(C)(O)c1[nH]c2ccc(C#N)cc2c1C (stereo not given)	.	4%	-9%	-13%	-8%	.	.	.
CN(C)c1ccc(CNC(=O)c2cnc3sc(N4CCOCC4)nn3c2=O)cc1	.	.	-5%	.	.	?	-1.2%	9%
Cn1c(=N)n(CC(O)c2cccc3ccccc23)c2ccccc21 (stereo not given)	?	-16%	-30%	-10%	-1%	?	-2.3%	-7%
CC(=O)OCc1cc2cc(C)ccc2[nH]c1=O	-7%	8%	-5%	-10%	5%	11%	-2.8%	4%
COCCCN=Cc1c(O)[nH]c(=S)[nH]c1=O	.	-17%	0%	5%	1%	.	.	.

Hits appear at their usual frequency, and some 4.7% of all compounds hit somewhere here.
